GIV-Gai inh = inhibitors of GIV peptide binding to Galpha-i3, primary screen, biochemical, fluorescence polarization, FITC-GIV GBA peptide, rat Galphai3; percent of control (FP), % (test concentration not listed); 0.42% of 210,000 active; 90 min; stronger effect = lower value; scaled: aluminum fluoride 0%, vehicle 100%; AID 1224905, 2016;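 active = replicate mean at 85% of control or lower, very high polarization wells dropped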;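 note: wells of about 15 µL received 100 nL stock; the first replicate is given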
Target sequence (P08753 whole entry, looked up): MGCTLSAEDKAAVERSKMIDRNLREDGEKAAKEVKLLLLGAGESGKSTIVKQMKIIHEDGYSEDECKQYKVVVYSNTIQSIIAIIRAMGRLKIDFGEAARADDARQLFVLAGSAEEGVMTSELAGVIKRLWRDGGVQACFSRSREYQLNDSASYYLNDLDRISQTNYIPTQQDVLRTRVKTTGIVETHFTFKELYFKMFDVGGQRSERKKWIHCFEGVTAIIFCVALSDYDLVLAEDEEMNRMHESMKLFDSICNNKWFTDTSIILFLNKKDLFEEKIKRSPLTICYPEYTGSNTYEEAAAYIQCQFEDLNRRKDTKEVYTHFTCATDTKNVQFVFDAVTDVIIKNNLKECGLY
Starred values were filed as active, the others as inactive.

Start of the listing, in advance (4 entries):
SMILES | GIV-Gai inh
Oc1cccc(C2N(Cc3ccccc3)CCN2Cc2ccccc2)c1 | 102
CCOc1ccc(C(c2c(C)[nH]n(-c3ccccc3)c2=O)c2c(C)[nH]n(-c3ccccc3)c2=O)c(OCC)c1 | 112
O=C(CSc1nnc(-c2ccccc2)n1-c1ccccc1)N1CCN(C(=O)c2ccccc2)CC1 | 112
COc1ccc(C(C)NS(=O)(=O)c2cc(-c3nc(C(C)(C)C)cs3)cs2)cc1 (centres undefined) | 104

The listing, previewed entries included:
SMILES | GIV-Gai inh
Oc1cccc(C2N(Cc3ccccc3)CCN2Cc2ccccc2)c1 | 102
CCOc1ccc(C(c2c(C)[nH]n(-c3ccccc3)c2=O)c2c(C)[nH]n(-c3ccccc3)c2=O)c(OCC)c1 | 112
O=C(CSc1nnc(-c2ccccc2)n1-c1ccccc1)N1CCN(C(=O)c2ccccc2)CC1 | 112
COc1ccc(C(C)NS(=O)(=O)c2cc(-c3nc(C(C)(C)C)cs3)cs2)cc1 (centres undefined) | 104
CC(=O)C1=NN(c2ccc(C)cc2)C(c2c[nH]c3ccccc23)N1c1ccc(C)cc1 (centres undefined) | 115
CCC(=O)Nc1cccc(-c2noc(C3CCCN(C(=O)c4ccc(F)cc4)C3)n2)c1 (centres undefined) | 106
Cc1ccc(S(=O)(=O)Nc2ccc3oc4c(c3c2)CC(C)CC4)cc1 (centres undefined) | 112
FC(F)(F)c1ccc(CN=C2Nc3ccccc3NC23CCCCCC3)cc1 | 97
CCOC(=O)CCn1c(-c2ccccc2)c(-c2ccccc2)c2cc(C)ccc21 | 110
CCOC(=O)c1c(C)[nH]c(CCC(=O)N2CCC(C)CC2)c1C | 111
CCOc1ccc(NC(=O)CSc2nc3ccccc3c(=O)n2CCCC(=O)N2CCN(c3ccccc3)CC2)cc1 | 112
Cc1ccc(-c2nccc(Oc3cccc(C(=O)NC4CCCC4)c3)n2)cc1 | 106
CCOC(=O)c1cnc2c(OC)cccc2c1Nc1ccc(C)cc1Br | 113
Cc1ccc(-c2ccc3nnc(C)n3n2)cc1S(=O)(=O)N1CCCC1 | 105
CC(C)Cn1c(=O)c2nscc2n(CC(=O)N2CCCC2)c1=O | 104
CCOC(=O)c1c(/N=C/c2nc(-c3cccc(OC)c3)oc2O)sc2c1CCCC2 | 109
COc1ccc(-c2cn3cccc(C)c3n2)cc1OC | 109
CCc1ccc(CNC(=O)C2CCN(c3ncccc3S(=O)(=O)N3CCCCC3)CC2)cc1 | 102
CC1CCc2c(oc3ccc(NS(=O)(=O)c4ccc5ccccc5c4)cc23)C1 (centres undefined) | 105
O=c1[nH]c(SCc2cccc(Cl)c2)nc2c1CN(Cc1ccccc1)CC2 | 98
CCN(CC)c1nc(C)nc2sc(C(=O)N(C)C3CCCCC3)c(C)c12 | 108
O=C1Nc2cc(Cl)ccc2Oc2ccc(S(=O)(=O)N3CCCC3)cc21 | 102
Clc1cccc(Cl)c1C1Nc2cccc3cccc(c23)N1 | 124
O=C(CCc1nc(CS(=O)(=O)c2ccc(F)cc2)no1)N1CCOCC1 | 105
CNC(=O)N1CCC(OC2CCCC2)CC1 | 98

A second format for some results above.
SMILES	GIV-Gai inh
COc1ccc(C(C)NS(=O)(=O)c2cc(-c3nc(C(C)(C)C)cs3)cs2)cc1 (centres undefined)	104
CC(=O)C1=NN(c2ccc(C)cc2)C(c2c[nH]c3ccccc23)N1c1ccc(C)cc1 (centres undefined)	115
CCC(=O)Nc1cccc(-c2noc(C3CCCN(C(=O)c4ccc(F)cc4)C3)n2)c1 (centres undefined)	106
Cc1ccc(S(=O)(=O)Nc2ccc3oc4c(c3c2)CC(C)CC4)cc1 (centres undefined)	112

Continued.
SMILES | GIV-Gai inh
CNS(=O)(=O)c1cc(-c2nnc(NCc3nc4ccccc4[nH]3)c3ccccc23)ccc1C | 106
COc1ccccc1-c1noc(-c2nnn(Cc3nc(-c4cccc(Cl)c4)oc3C)c2C)n1 | 117
CCN(CC)C(=O)CSCc1noc(-c2ccc(C)cc2)n1 | 107
CC(C)c1cc(C2CCCN2Cc2cc(Br)ccc2F)no1 (centres undefined) | 107
CCOC(=O)C1=NNC2C(=O)N(c3ccc(C#N)cc3)C(=O)C12 (centres undefined) | 107
COc1ccc(NS(=O)(=O)c2c(C)sc(C)c2-c2cc(C(F)(F)F)on2)cc1OC | 98
CCOC(=O)C1=C(C(=O)OCC)SC2(S1)C(C(=O)OCC)=C(C(=O)OCC)SC1=C2c2cc(C)ccc2N(C(=O)C(C)C)C1(C)C | 104
C=CCOc1ccc(C2N3CC4(C(C)C)CN2CC(C(C)C)(C3)C4=O)cc1 (centres undefined) | 120
COc1cc(OC)cc(C(=O)Nc2nc3ccc(S(=O)(=O)N4CCCCC4)cc3s2)c1 | 107
Cc1cccn2c(=O)c(/C=C3\SC(=S)N(CCCCCC(=O)O)C3=O)c(NCCN3CCOCC3)nc12 | 136
CCCCN1CCN(C(=O)C2CC(=O)N(c3ccc4c(c3)CCN4C(=O)C3CC3)C2)CC1 (centres undefined) | 104
O=C(CSc1nc2ccccc2c(=O)n1CC1CCC(C(=O)N2CCN(c3ccccc3)CC2)CC1)NCc1ccco1 (centres undefined) | 109
O=c1/c(=C/c2ccc(O)cc2)sc2nc3cc(Br)cnc3n12 | 121
N#CC(C#N)=Cc1cc(-c2ccccc2)n(-c2ccc([N+](=O)[O-])cc2)c1-c1ccccc1 | 100
Cc1ccc(S(=O)(=O)Nc2nc(C)c(NC(=O)OCCOc3nc(N(C)C)nc(N(C)C)n3)s2)cc1 | 108
Cc1cccc(C2(c3cccc(C)c3)CC2C(=O)Nc2cccc(Cl)c2)c1 (centres undefined) | 105
CCSc1nnc(-c2nn(C)c3c2CN(S(=O)(=O)c2ccc(CC)cc2)CC3)n1C | 103
COC(=O)c1ccc(C2Oc3c(OC)cccc3C3CC(c4ccco4)=NN32)cc1 (centres undefined) | 116
Cc1cccc(C)c1NC1=NC(=S)N(c2cccc(Cl)c2)C12CCC(C(C)(C)C)CC2 (centres undefined) | 104
COC(=O)c1ccc(N2C(=O)C3C4c5ccccc5C(C)(c5ccccc54)C3C2=O)cc1 (centres undefined) | 107
CCSc1nc2ccccc2n1CC(=O)Nc1ccccc1[N+](=O)[O-] | 116
Cc1ccc(NC(=O)N2CCN(Cc3nc(-c4ccc(C)cc4)oc3C)CC2)cc1 | 96
Cc1ccn2c(=O)cc(COc3ccc(NC(=O)CN4C(=O)c5ccccc5C4=O)cc3)nc2c1 | 96
NC(=O)N1CCn2c3c(c4cc(C5CCCCC5)ccc42)CCCC31 (centres undefined) | 103
Cc1ccc(C(=O)N2CCN(C(=O)c3ccccc3)C2c2ccc(N(C)C)cc2)cc1 (centres undefined) | 107

Continued; the last 4 above are carried over.
SMILES | GIV-Gai inh
Cc1ccc(NC(=O)N2CCN(Cc3nc(-c4ccc(C)cc4)oc3C)CC2)cc1 | 96
Cc1ccn2c(=O)cc(COc3ccc(NC(=O)CN4C(=O)c5ccccc5C4=O)cc3)nc2c1 | 96
NC(=O)N1CCn2c3c(c4cc(C5CCCCC5)ccc42)CCCC31 (centres undefined) | 103
Cc1ccc(C(=O)N2CCN(C(=O)c3ccccc3)C2c2ccc(N(C)C)cc2)cc1 (centres undefined) | 107
CCCN1CCN(S(=O)(=O)c2cc(-c3nc(C)cs3)n(CC(=O)N3CCCCC3)c2)CC1 | 102
Cc1ccc(C)c(S(=O)(=O)N(Cc2ccco2)CC2CCCO2)c1 (centres undefined) | 103
O=S(=O)(NCCCCCc1nc2ccccc2[nH]1)c1cccc2nsnc12 | 102
O=C(Cc1cccc(F)c1)N1CCN(C(=O)c2cc3cc(Br)ccc3[nH]2)CC1 | 103
O=c1c2ccccc2c(=O)c2c1c(Nc1ccccc1)cc1oc3cc(Cl)ccc3[nH]c12 | 99
COc1ccc(N2C(SC)=NC(=Nc3cccc(C(F)(F)F)c3)C23CCCCC3)cc1 | 104
COc1ccc2oc(=Nc3cc(C(F)(F)F)ccc3N3CCCCC3)c(C(N)=O)cc2c1 | 106
CCOC(=O)c1nc(N2CCCC2)c2oc3ccccc3c2n1 | 104
CNC(=O)c1ccc2c(c1)CCN2C(=O)C1CC1 | 101
CCCCOc1ccc(/C=N/NC(=O)c2nnn(-c3nonc3N)c2CN2CCCCCC2)cc1 | 113
COc1cc(OC)c(NS(=O)(=O)c2cc(-c3noc(C)n3)cs2)cc1Cl | 106
Nc1c(C(=O)C2CC2)oc2ccc(Cl)cc12 | 106
Cc1ccc(C(=O)COC(=O)C(Cc2ccccc2)N2C(=O)C3C4C=CC(C4)C3C2=O)cc1C (centres undefined) | 96
COc1cccc(-n2c(=S)sc3c2nc(SCC(=O)NCc2ccccc2)n2c4ccccc4nc32)c1 | 102
COc1ccc(-c2cc(C(F)(F)F)n3nc(C(=O)Nc4ccc(C#N)cc4)cc3n2)cc1 | 109
CC(Oc1ccc2ccccc2c1)C(=O)NN1S(=O)(=O)c2ccccc2S1(=O)=O (centres undefined) | 110
O=S(=O)(c1ccccc1Cl)N1CCn2cccc2C1c1ccccc1F (centres undefined) | 105
Cc1cc2nc3s/c(=C\c4cn(Cc5ccccc5F)c5ccccc45)c(=O)n3c2cc1C | 102
O=C(O)CC1(C(=O)O)NC(c2ccc(O)cc2O)C2C(=O)N(Cc3ccccc3)C(=O)C21 (centres undefined) | 108
COc1cccc2cc(C(=O)Nc3ccc(F)cc3)c(=Nc3ccc(C(=O)O)cc3)oc12 | 118
Cc1ccc(C)c2c1-c1ccccc1S(=O)(=O)N2S(=O)(=O)c1ccccc1 | 111
COc1ccc2c(c1)c(=O)c1ccccc1n2CC(=O)Nc1ccc(F)cc1F | 115
CCCCCCNC(=O)c1ccc(CNC(=O)c2ccc(OC)c(OC)c2)cc1 | 104
COc1ccccc1NC(=O)Cn1cnc2sc(C(=O)Nc3cc(OC)c(OC)c(OC)c3)c(C)c2c1=O | 109
Cc1ccc(NS(=O)(=O)c2cc(-c3nc(C)c(C)s3)sc2C)cc1C | 104
The list continues.
SMILES | GIV-Gai inh
COc1cc(-c2nc3sc4c(c3c(=O)[nH]2)CCCC4)cc(Cl)c1OCCOc1cc(C)ccc1C(C)C | 102
CN(Cc1cccn1C)C(=O)NC1CCCCC1 | 101
CCOc1ccc(C(=O)N(C)CCc2noc(C(=O)NCc3ccccc3)n2)cc1 | 106
O=C(Nc1ccc2c(c1)OCO2)c1nnc(C2CCN(S(=O)(=O)c3ccc(Cl)cc3)CC2)s1 | 102
COc1ccc(N2C(=O)/C(=C\c3cc(Cl)cc(Br)c3O)C(=O)NC2=S)cc1 | 106
O=C(CSc1nc(=O)n(Cc2ccncc2)c2c1CCC2)Nc1ccc(F)c(F)c1 | 102
CCN(CC)CCSc1nnc2c(n1)[nH]c1ccc(C)cc12 | 109
Cc1nn(-c2ccc3nnc(C)n3n2)c2c1C(c1cccc3ccccc13)CC(=O)N2 (centres undefined) | 100
COC(=O)CN1C(=O)C2(C(C#N)=C(N)OC3=C2C(=O)CC(c2ccco2)C3)c2ccccc21 (centres undefined) | 108
O=C(NCc1c(-c2ccccc2)nc2n1CCS2)c1cccc(Br)c1 | 101
N#CC1=C(N)N(c2ccc(Br)cc2)C2=C(C(=O)CCC2)C1c1ccc2c(c1)OCO2 (centres undefined) | 100
CCSc1nc2ccccc2n2nnnc12 | 102
CN1CCN(c2ncncc2N2CCC(C(=O)N3CCCCCC3)CC2)CC1 | 98
Cc1ccc(N2C(=O)C3C4c5ccccc5C(C=O)(c5ccccc54)C3C2=O)c(C)c1 (centres undefined) | 106
COC(=O)c1sccc1NC(=O)N1CCCC1c1cc(C)on1 (centres undefined) | 102
CCOc1ccc(NS(=O)(=O)c2ccccc2-c2nc(-c3ccc(F)cc3)no2)cc1 | 105
CCOC(=O)CS(=O)(=O)c1cc2c(cc1NC(=O)CC(C)C)n(C)c(=O)c(=O)n2C | 102
O=C(CCCCCn1c(=S)[nH]c2ccc(Br)cc2c1=O)NCCCN1CCOCC1 | 106
CCCCNC(=O)CN1CCN(C(=O)c2sc3ncccc3c2-n2cccc2)CC1 | 106
COc1ccc(C(=O)c2sc3nc(-c4ccc(OC)cc4)ccc3c2N)cc1 | 116
CCOc1ccc(NS(=O)(=O)c2cc(-c3ccc4nnc(C)n4n3)ccc2C)cc1 | 103
COc1ccccc1NC(=O)N1CCN(Cc2nc3cc(C(=O)N4CCCC4)ccc3n2C)CC1 | 106
COc1ccccc1/C=C1\N=C(c2ccc(OC)c(OC)c2)N(c2ccc(Cl)cc2)C1=O | 77*
O=c1c2c3c(sc2ncn1Cc1ccccc1Cl)CCCC3 | 112
Cc1ccc(NC(=O)CSc2nc3n(n2)C(=O)C(=O)N3)cc1 | 101
The list goes on:
SMILES | GIV-Gai inh
CCOC(=O)c1c(C)[nH]c(CCC(=O)NCCc2ccc(S(N)(=O)=O)cc2)c1C | 105
CCC(=O)Nc1cccc(-c2noc(C3CCCN(C(=O)c4ccsc4)C3)n2)c1 (centres undefined) | 104
Cc1cccc(N2CCN(c3cccc(C)c3)C2c2ccc(Cl)cc2)c1 | 98
CCn1c(C)c(-c2nc(C3CC3)no2)c(S(=O)(=O)NCC2CCCO2)c1C (centres undefined) | 105
CC(=O)Nc1ccc(S(=O)(=O)N2CCc3c(c(COCc4ccccc4)nn3C)C2)cc1 | 107
CCN1C(=O)CCC2(C(=O)N3CCCCC3)CCCC=C12 (centres undefined) | 106
Cc1ccc(C2SCc3cc(C)c(C)cc3CS2)c(O)c1 | 107
CC(=O)Nc1cccc(-c2nc(-c3ccc4c(c3)nnn4CCC(=O)N3CCCC3)no2)c1C | 96
O=C(Nc1ccc(C(F)(F)F)cc1)c1cc(S(=O)(=O)NCC2COc3ccccc3O2)ccc1F (centres undefined) | 116

Screening data as filed in PubChem.

An excerpt, so the mix of outcomes need not match the whole.
